Screens from PubChem.
D2 potentiator: human D2 receptor positive allosteric modulation. P14416. DiscoveRx D2 beta-arrestin cells, luminescence, 90 min; 100% = 57 uM dopamine signal. potentiation, % (test concentration not listed). 360,000 compounds, 0.23% hits. AID 624464; active = potentiation of 50% or more; inconclusive = 30% to 50%; inactive = 30% or less;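 note: compound concentration not given in the record; tested on top of an EC20 dose of dopamine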
Target sequence (P14416 whole entry, looked up): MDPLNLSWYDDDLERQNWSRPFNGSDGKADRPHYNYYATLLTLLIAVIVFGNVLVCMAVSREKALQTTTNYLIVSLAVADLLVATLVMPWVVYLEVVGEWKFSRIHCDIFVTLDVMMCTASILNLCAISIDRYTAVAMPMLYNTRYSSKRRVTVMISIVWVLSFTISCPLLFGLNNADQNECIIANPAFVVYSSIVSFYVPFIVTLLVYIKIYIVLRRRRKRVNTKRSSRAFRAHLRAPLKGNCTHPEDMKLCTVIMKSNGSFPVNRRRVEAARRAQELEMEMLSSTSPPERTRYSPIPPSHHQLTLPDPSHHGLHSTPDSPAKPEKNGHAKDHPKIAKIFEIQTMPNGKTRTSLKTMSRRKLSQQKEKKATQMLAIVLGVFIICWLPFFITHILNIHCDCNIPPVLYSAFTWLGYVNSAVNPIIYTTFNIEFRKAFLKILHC
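D2 cells co-treated with compound plus 50 nM dopamine (EC20) for 90 min at 37 deg C to detect potentiation. Beta-arrestin recruitment was read as enzyme-fragment luminescence after 1 h at ambient temperature. Full response was set by 57 uM dopamine.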
TRPML1 agonist: agonists of human TRPML1 channel; Q9GZU1; activation, % (no concentration beside the values); TRPML1-expressing cells, Ca2+ dye fluorescence, FDSS; host cell line not named in the record; reference of the full effect not given here; AID 624414; 410,000 compounds, 0.12% hits; in the data active = activation above about 50%; inconclusive = about 30% to 50%; inactive = below about 30%; note: 0% is about no effect; the text of the record puts the active cut at 80%
Target sequence (Q9GZU1 whole entry, looked up): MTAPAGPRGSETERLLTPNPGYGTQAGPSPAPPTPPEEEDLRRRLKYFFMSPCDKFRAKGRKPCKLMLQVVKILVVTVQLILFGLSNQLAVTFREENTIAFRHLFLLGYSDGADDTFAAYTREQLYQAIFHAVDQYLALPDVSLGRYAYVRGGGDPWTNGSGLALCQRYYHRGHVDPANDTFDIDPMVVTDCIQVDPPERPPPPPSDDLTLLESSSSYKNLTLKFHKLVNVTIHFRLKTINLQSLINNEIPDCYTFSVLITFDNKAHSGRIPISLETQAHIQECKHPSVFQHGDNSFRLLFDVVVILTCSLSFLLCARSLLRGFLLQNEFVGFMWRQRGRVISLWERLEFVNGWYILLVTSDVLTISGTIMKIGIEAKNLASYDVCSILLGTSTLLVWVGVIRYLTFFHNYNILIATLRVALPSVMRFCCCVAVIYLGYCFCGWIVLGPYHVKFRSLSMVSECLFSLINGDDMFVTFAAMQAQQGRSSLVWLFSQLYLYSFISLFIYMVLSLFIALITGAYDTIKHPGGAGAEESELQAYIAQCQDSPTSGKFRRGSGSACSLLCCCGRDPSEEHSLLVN
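Calcium fluorescence on an FDSS kinetic reader gave the read-out. Tet-induced TRPML1-DL cells were plated overnight, dye-loaded (Ca8 with quencher, 45-90 min, room temperature, dark), then read 110 s after compound addition, and again 110 s after 4uM final 54-4 (EC80).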
Six1-Eya2 blk: blocks human Six1 binding to Eya2; AlphaScreen GST-Six1/His-Eya2 binding, biochemical; active compounds read low; control for the full effect not named in the record; activity change, % (test concentration not listed); 360,000 compounds, 0.56% hits; AID 651725; in the data active = activity change below about -65%; inconclusive = about -30% to -65%; inactive = above about -30%; note: % is set by controls: 0 for no effect and ±100 for the full control effect
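GST-Six1 + His-Eya2 (5X stock: 250/500 nM); Tris pH 8.0, 300 mM NaCl, 0.05% BSA, 0.02% Tween 20; GSH donor/Ni acceptor beads; 1 h 37 °C dark; AlphaScreen readout.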
D2 agonist: agonists of human D2 dopamine receptor (beta-arrestin); DiscoveRx PathHunter D2 beta-arrestin, luminescence, 90 min; 100% = 57 uM dopamine signal; activation, % (concentration not given with the values); 360,000 compounds, 0.084% hits; in the data active = activation above about 40%; inconclusive = about 15% to 40%; inactive = below about 15%; note: the text of the record calls up to 30% inactive
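Agonist mode: compounds alone added to overnight-plated D2 PathHunter cells for 90 min at 37 C, with 57 uM final dopamine (EC100) defining full response. Beta-arrestin recruitment detected by chemiluminescent reagent, read after 1 h at ambient temperature.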
TRPML1 blocker: inhibitors of human TRPML1 channel. Q9GZU1. TRPML1-inducible cells, Ca2+ dye fluorescence, FDSS; active compounds read low; inhibition of EC80 agonist-evoked calcium signal. activity change, negative = inhibition, % (concentration not given with the values). 390,000 compounds, 0.02% hits. AID 624415; in the data active means activity change below about -50%; inconclusive means about -30% to -50%; inactive means above about -30%;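 note: stimulus is agonist 54-4 at its EC80 concentration; % is set by controls: 0 for no effect and ±100 for the full control effect; the text of the record puts the active cut at -80%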
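TRPML1-DL cells, Tet-induced overnight (~16 h, 37 °C) at 1,500 cells/well, were loaded with Ca8 no-wash dye plus quencher for 45-90 min at room temperature. Compounds were pinned during FDSS kinetic reading; agonist 54-4 at EC80 (4 uM final) then added.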
PINK1 expr mod: PINK1 expression modulation. Potency, µM (top dose mostly 76.6 µM), inactives show at the top dose activation (PINK1 increase), usual class: activators. 410,000 compounds, 0.2% hits. PINK1 immunofluorescence, high-content cytometry, 24 h. AID 624263; active = well fitted activation curve with a large enough effect; inconclusive = small, poorly fitted or top-dose-only effect; inactive = flat fitted curve, though single readings scatter; cell line not stated here;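 note: potency is the fitted concentration of half-maximal effect; % of control where 0% means no effect; nearly all actives have a fitted effect of over 65% in size; a mitochondrial uncoupler was the plate control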
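Readout is PINK1 immunofluorescence, quantified alongside mitochondrial, cell and nuclear markers by laser-scanning microplate cytometry. Cells from a stable line were exposed to compound titrations (5 concentrations) for 24 hours, with CCCP controls.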
Active calls of the source: *; ? = inconclusive; . = not tested or not shown; [ ] = remark or other dose. No enrichment for hits. About 1% of those tested had a hit in this group.

A first look:
SMILES	D2 potentiator	TRPML1 agonist	Six1-Eya2 blk	D2 agonist	TRPML1 blocker	PINK1 expr mod
Cc1nnc(SC(C)C(=O)NCC2CCCO2)s1 (stereo unspecified)	6	0.0	0	-3.3	4	-0.9%
Cc1cccc(C(C)C)c1NC(=O)COC(=O)c1cc2ccccc2oc1=O	-6	0.4	8	-0.3	3	0.4%
CC(=O)c1cccc(CN2CCN(C(C)C)C(CCO)C2)c1 (stereo unspecified)	-16	-0.7	-1	-4.2	15	-0.6%
COCCn1c(Cc2ccccc2)nnc1SCC(=O)NC1CCCCC1	2	-0.1	-3	4.3	-6	-2.0%
COc1ccccc1C(=O)NCCC(=O)NCCCSc1ccccc1	-14	-0.8	10	-4.8	8	0.0%
COc1ccc(NC(C)=O)cc1NC(=O)c1ccc(Cl)cc1	-25	3.6	-10	-7.1	-2	0.2%

All compounds of this part, from the first entry:
SMILES	D2 potentiator	TRPML1 agonist	Six1-Eya2 blk	D2 agonist	TRPML1 blocker	PINK1 expr mod
Cc1nnc(SC(C)C(=O)NCC2CCCO2)s1 (stereo unspecified)	6	0.0	0	-3.3	4	-0.9%
Cc1cccc(C(C)C)c1NC(=O)COC(=O)c1cc2ccccc2oc1=O	-6	0.4	8	-0.3	3	0.4%
CC(=O)c1cccc(CN2CCN(C(C)C)C(CCO)C2)c1 (stereo unspecified)	-16	-0.7	-1	-4.2	15	-0.6%
COCCn1c(Cc2ccccc2)nnc1SCC(=O)NC1CCCCC1	2	-0.1	-3	4.3	-6	-2.0%
COc1ccccc1C(=O)NCCC(=O)NCCCSc1ccccc1	-14	-0.8	10	-4.8	8	0.0%
COc1ccc(NC(C)=O)cc1NC(=O)c1ccc(Cl)cc1	-25	3.6	-10	-7.1	-2	0.2%
CCOC(=O)c1ccc(NC(=O)c2c(C)[nH]c(C(=O)OCC)c2C)cc1	0	0.0	-2	1.3	6	3.9%[38.3 µM]
CC(=O)Nc1ccc(S(=O)(=O)N(C)CC(=O)NCCC2=CCCCC2)cc1	-2	-0.5	3	-3.9	0	1.8%
O=S(=O)(c1ccccc1)N1CCC(O)(CSc2ccc(Cl)cc2)CC1	-20	4.2	1	-4.4	13	-0.3%
Cc1cccc(N2CCN(C(=O)c3ccc4c(c3)N(Cc3ccccc3F)C(=O)c3ccccc3S4=O)CC2C)c1 (stereo unspecified)	.	-0.8	.	.	-5	0.4%
O=C(COc1ccc(Cl)cc1Br)N1CCN(S(=O)(=O)c2ccccc2)CC1	7	1.6	4	1.9	59	0.5%
CCS(=O)(=O)NCC(c1cccnc1)N1CCN(c2ccccc2F)CC1 (stereo unspecified)	23	-0.3	6	1.3	21	-0.4%
Cc1ccc(-c2nn(-c3ccccc3)cc2/C=N/n2c(-c3ccncc3)n[nH]c2=S)cc1	-4	0.2	9	-0.8	26	15%
COc1ccc(-c2ccc3nncn3c2)cn1	-6	0.9	-6	0.9	27	-1.1%
COc1ccccc1NS(=O)(=O)c1cccc(NC(=O)c2cc3ccccc3oc2=O)c1	-3	-0.5	-4	2.1	-23	14%
Cc1ccc(CNC(=O)c2ccc3c(=O)n(CC4CCCO4)c(=S)[nH]c3c2)cc1 (stereo unspecified)	-10	2.8	6	-4.6	5	-3.1%[38.3 µM]
Cc1ccccc1OCCCC(=O)Nc1ccc(S(=O)(=O)Nc2onc(C)c2C)cc1	0	-0.8	-1	-0.9	14	3.3%
Cc1cc(C(=O)COc2nncc3ccccc23)c(C)n1C	1	0.1	17	2.7	-17	0.6%
COc1cc(SC)ccc1C(=O)OCC(=O)NC(=O)NC(C)C	1	-0.4	-1	1.9	14	1.0%
CCONc1ncnc2nonc12	-5	0.1	-6	-4.5	29	-0.1%
CSc1sc(C(=O)NNC(C)=O)c2c1C1(CCC2)SCCS1	-16	0.2	-3	-4.0	25	4.5%
O=c1[nH]c(CN(CCO)CCO)nc2c1C1(CCCCC1)Cc1ccccc1-2	-29	0.8	-2	-5.0	-10	-0.3%
S=C1N(c2ccccc2)CN(C2CCCCC2)CN1c1ccccc1	-15	-0.8	11	-3.2	-2	2.4%
COc1ccc(CN2CCNC(=O)C2CC(=O)N(C)CCc2cnn(C)c2)c(F)c1 (stereo unspecified)	-16	0.0	-2	2.3	11	-0.9%
CCc1c(C(=O)NNC(=S)NCC2CCCO2)csc1C (stereo unspecified)	-27	0.1	13	-3.0	-7	-1.4%
Cc1ccc(S(=O)(=O)N2CCC(C(=O)Nc3ccccc3N3CCCCC3)CC2)cc1	-3	1.3	2	-2.4	6	-2.3%[38.3 µM]
O=C1CC(c2ccc(F)cc2)Sc2nc(C34CC5CC(CC(C5)C3)C4)nn21 (stereo unspecified)	-20	0.8	4	-1.2	1	4.5%
O=c1c2ccccc2ccc2ccccc12	-1	0.2	4	0.0	2	2.4%
COc1ccc(Cl)cc1NC(=O)NCC1CCN(Cc2cc(C)ccc2C)CC1	-6	-0.5	-13	-3.0	-11	2.4%
CCOC(=O)CSc1nc(C)c2cc(C)c(C)cc2n1	-11	1.8	6	1.4	13	0.1%
COc1ccccc1NC(=O)Nc1cc(C(C)(C)C)nn1C	-5	1.4	-1	-4.6	-20	-1.0%
CCN(CC(=O)Nc1ccc2c(c1)OCCO2)C(=O)C1CC(=O)N(c2ccc(OC)cc2OC)C1 (stereo unspecified)	19	-0.4	0	4.5	6	4.2%
CC(C)=C1SC(N2CCN(c3ccc(C)cc3)CC2)=NC1=O	-4	1.9	7	-1.2	21	4.4%
CC(=O)c1ccc(NC(=O)CCc2nnc3ccc(NCc4ccco4)nn23)cc1	-3	0.1	-10	1.6	-4	?
CCOC(=O)c1sc(=S)n(-c2ccc3c(c2)OCO3)c1N	-6	-0.5	-25	1.2	-9	?
CCCCn1c(N)c(N(CC(C)C)C(=O)CSCC(=O)Nc2cccc(C)c2)c(=O)[nH]c1=O	4	0.0	5	0.6	-6	-0.2%
Cc1cc(OCC(O)CN(CCO)CCO)ccc1Cl (stereo unspecified)	-18	0.1	10	-3.0	-1	0.4%
Cc1ccccc1C(=O)NCC(=O)OC(C)C(=O)NCc1ccco1 (stereo unspecified)	-6	0.1	2	-3.6	9	0.6%
c1ccc(CNCc2ccc(CNCc3ccccc3)cc2)cc1	-19	0.0	-3	-0.7	-1	-0.4%
Cc1ccc(-n2ncc3c(=O)n(CC(=O)NC4CCCCC4)cnc32)cc1C	-14	0.9	0	-0.1	-11	16%[38.3 µM]
Cc1ccc(C)c(Cn2c(=O)n(Cc3ccccc3)c(=O)c3c(C)c(C)sc32)c1	.	1.6	.	.	28	1.7%
CCn1cc(C(=O)N2CCCc3ccccc32)c2cc(OC)c(OC)cc2c1=O	-6	1.3	2	-1.8	7	0.4%
C[n+]1ccccc1C1CCCC/C1=N\NC(N)=S (stereo unspecified)	-4	-0.4	0	-7.5	-15	1.8%
O=C(O)CC/C(=N\Nc1ccc([N+](=O)[O-])cc1S(=O)(=O)N1CCOCC1)c1cccs1	-1	4.8	-9	-2.4	-2	-0.3%
CCc1c(C)nc2ncnn2c1N1CCCC(C(=O)Nc2ccc(NC(C)=O)cc2)C1 (stereo unspecified)	-2	0.5	6	-3.1	1	-1.3%
CCc1c(C)nc2c(-c3ccccc3OC)c(C)[nH]n2c1=O	-10	0.9	-7	0.8	-11	2.7%
CC(=O)c1cnc(N(C)C)s1	-12	1.1	-2	-2.6	-5	-2.1%
Oc1c(C(Nc2ccccn2)c2cccnc2)cc(Cl)c2cccnc12 (stereo unspecified)	-41	3.5	-90*	-16	16	1.9%
O=c1oc2ccccc2c2c1nc(C(F)(F)F)n2-c1ccccc1	6	1.2	2	-1.4	-19	-0.4%
CC(C)C(=O)NN1c2ccccc2CCc2ccccc21	-2	4.4	2	-1.9	-2	2.9%

(list continues)
SMILES	D2 potentiator	TRPML1 agonist	Six1-Eya2 blk	D2 agonist	TRPML1 blocker	PINK1 expr mod
CN(Cc1cn(C)nc1-c1cccc(Cl)c1)C1CCOCC1	-2	-0.7	-1	8.0	-8	0.5%
CCCCn1c(Cl)nc2c1c(=O)n(C)c(=O)n2C	-13	-0.2	-4	-0.1	5	-1.8%
C[C@@H]1CN([C@@H](C)CO)C(=O)c2cc(Br)cnc2O[C@H]1CN(C)S(=O)(=O)c1ccccc1	2	0.0	-1	-2.1	-8	-2.5%
COc1ccccc1N1C(=O)C(=O)N(C)C1=O	-3	-0.6	-6	-3.3	23	-0.1%
COc1ccc(CCNC(=O)C2CC(c3cccc(F)c3)=NO2)cc1 (stereo unspecified)	-2	-0.3	12	-1.3	-12	1.7%
Cc1ccc(-c2nnn(CC(=O)N3CCCCC3)n2)o1	-6	0.5	5	-4.0	11	2.0%
O=C(NCCN1CCOCC1)c1cc(-c2ccc(F)cc2)nc2ccccc12	-45	-0.4	2	-3.6	9	-1.6%
Cc1cc(C(=O)OCC(=O)Nc2cc(S(=O)(=O)N(C)C)ccc2C)c2ccccc2n1	-15	-0.1	-17	-1.6	-1	0.4%
O=C(O)c1ccc2c(c1)C(=O)N(c1ccc(OCc3ccccc3)cc1)C2=O	-1	0.7	0	-4.3	-11	-0.6%
Cc1cc2nc(C(C)(C)C)c(Cc3ccccc3C(F)(F)F)n2c(C)c1Br	.	1.3	-2	.	.	?
O=C(CN1CCN(S(=O)(=O)c2ccc(Cl)cc2)CC1)NC(=O)NC1CCCCC1	3	0.3	-2	-1.2	-1	-3.6%
COC(=O)c1ccc(NC(=S)NC2CC3CCC2C3)cc1 (stereo unspecified)	-1	-0.4	2	-2.3	6	?
NS(=O)(=O)c1cc([N+](=O)[O-])ccc1NCc1cccnc1	-6	1.0	-1	7.8	10	1.0%
CC(C)CCNC(=O)c1cc(S(=O)(=O)N2CCCCC2)ccc1N1CCOCC1	-12	-0.5	1	-1.0	-15	1.3%
Cc1cccc(C(=O)NCCc2nnc(SCC(=O)Nc3nc(C)cs3)n2C)c1	0	-0.8	2	-1.5	-3	-5.3%[38.3 µM]
CCc1ccc(C(=O)NNc2ccccc2F)cc1	-3	1.1	1	-0.1	9	2.3%
COc1ccc(CCN2C(=O)CCC2(C)C(=O)NC2CCCC2)cc1OC (stereo unspecified)	-8	-0.8	1	-1.0	-5	-1.2%
CC(C)C(NC(=O)C12CC3CC(CC(C3)C1)C2)C(=O)N/N=C/C1=C(N2CCOCC2)C(=C\c2cccc([N+](=O)[O-])c2)/CC1 (stereo unspecified)	-13	-0.8	-4	-4.1	4	1.6%
Cc1cc(NS(=O)(=O)c2ccc(NC(=O)Cc3ccccc3)cc2)nc(C)n1	-3	-0.4	-1	3.5	2	1.0%
COc1ccc(C(=O)CSc2nc(-c3ccccn3)nc(C)c2Cl)cc1	-12	1.4	9	-9.8	-11	4.9%
CCCCN(CCCC)S(=O)(=O)c1c(C)[nH]c(=O)[nH]c1=O	-4	-0.7	9	2.8	9	2.3%
CCCCOc1cccc(NC(=O)c2cccc(C(=O)Nc3cccc(OCCCC)c3)c2)c1	.	-0.5	.	.	-12	0.0%
CC(=O)c1ccc(S(=O)(=O)Nc2cc3c(cc2C(C)=O)OCO3)cc1	-9	-0.6	4	-0.1	12	3.2%
